Bioassay records as filed in PubChem BioAssay.
HSV replic up: increases HSV replication in cells. HSV replication augmentation in cells, fold increase. maximum fold increase. actives 0.005% (n = 220,000). AID 1956;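 active means peak rise of 1.5-fold or more in the series; inconclusive means self-fluorescent or not available for retest; tested in PC3 cells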;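 further: first round at 10 µM; read as green reporter fluorescence; hits show the peak of a series up to 25 µM; 1 = signal of infected wells without compound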
GALR2 ag: activates the human galanin receptor 2 | actives 0.48% (n = 140,000) | GALR2-expressing cells, agonist activation read-out | O43603 | activation, %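 (tested at 5 µM)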 | AID 803;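 active means above mean plus 3 SD of all compounds, about 5% in these data, not always enough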;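 further: 0% = vehicle buffer wells and 100% = reference agonist at full effect; tested in CHO reporter cells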
Target sequence (O43603 whole entry, looked up): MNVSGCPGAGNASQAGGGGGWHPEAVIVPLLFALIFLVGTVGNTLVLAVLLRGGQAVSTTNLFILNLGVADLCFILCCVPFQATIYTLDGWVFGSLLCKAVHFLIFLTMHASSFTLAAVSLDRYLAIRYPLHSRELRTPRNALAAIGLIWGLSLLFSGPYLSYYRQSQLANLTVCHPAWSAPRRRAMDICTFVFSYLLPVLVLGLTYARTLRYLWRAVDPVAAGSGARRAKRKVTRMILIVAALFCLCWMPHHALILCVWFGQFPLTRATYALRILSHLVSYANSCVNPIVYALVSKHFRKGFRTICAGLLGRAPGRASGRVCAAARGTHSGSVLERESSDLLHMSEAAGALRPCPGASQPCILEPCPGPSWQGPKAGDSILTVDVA
PKD1 kinase inh: inhibitors of human PKD1 kinase | PKD1 kinase fluorescence polarization assay | inhibition, %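 (about 10 µM by stock and volumes)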 | actives 0.056% (n = 200,000);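 active means inhibition of 50% or more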;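 further: controls were vehicle for no effect and a reference inhibitor for full effect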
Insulin prom inh: TRM-6 insulin promoter activity inhibition; TRM-6 cells (human fetal islet line), insulin promoter-eGFP reporter, imaging; reporter expression induced with tamoxifen; inhibition, % at 2 µM; actives 0.9% (n = 130,000);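 active means inhibition above the mean plus 3 SD, with well images judged a real hit on visual review, cut at about 60% in these data, passing the limit was not always enough; inconclusive means inhibition over the cutoff but images rejected on review; inactive means inhibition not above the cutoff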
RGS16-Gao: regulators of human RGS16-Galphao interaction; actives 0.38% (n = 220,000); bead-based flow cytometry RGS16-Galphao binding, fluorescence; actives lie on both sides; O15492+P09471; binding response (% of control), % at 10 µM;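 active means below 25% or above 175%, edge rows of some plates excepted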;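 further: Galphao activated by GDP with aluminum fluoride before binding; 100% = wells without compound and 0% = beads without RGS; some results beyond the cut were filed as inactive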
Target sequence (O15492 whole entry, looked up): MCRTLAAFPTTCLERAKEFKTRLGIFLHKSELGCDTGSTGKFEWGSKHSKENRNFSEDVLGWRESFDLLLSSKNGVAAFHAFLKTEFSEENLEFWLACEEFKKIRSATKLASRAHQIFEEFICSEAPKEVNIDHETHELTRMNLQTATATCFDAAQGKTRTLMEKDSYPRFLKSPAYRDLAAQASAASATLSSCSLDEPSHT
Target sequence (P09471 whole entry, looked up): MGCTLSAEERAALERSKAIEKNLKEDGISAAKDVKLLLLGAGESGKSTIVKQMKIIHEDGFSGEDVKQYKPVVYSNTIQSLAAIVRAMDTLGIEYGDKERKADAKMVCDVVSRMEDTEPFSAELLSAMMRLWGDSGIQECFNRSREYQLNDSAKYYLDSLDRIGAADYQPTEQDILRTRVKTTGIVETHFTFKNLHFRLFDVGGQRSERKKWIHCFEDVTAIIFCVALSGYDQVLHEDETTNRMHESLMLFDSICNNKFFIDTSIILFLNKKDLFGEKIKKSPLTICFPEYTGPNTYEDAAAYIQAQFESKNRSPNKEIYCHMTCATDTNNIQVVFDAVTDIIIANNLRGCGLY
Insulin prom inh cell count: recorded beside Insulin prom inh, whose call it bears; normalized cell count, %; measured here: cell count, toxicity; reference of the scale not given here;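 cells exposed to compound for 48 h; stained nuclei by imaging scaled within each plate; lower means fewer cells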
HSV replic up primary fold: also measured in HSV replic up; calls as there; fold increase; compound at 10 µM; measured here: primary screen fold increase 10 uM; tested in PC3 cells;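 GFP signal in the first replicate; 1 = infected wells without compound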
Starred values were filed as active, the others as inactive; i = inactive; ? = inconclusive; . = not tested or not shown.

Molecule | Insulin prom inh cell count | HSV replic up primary fold | HSV replic up | GALR2 ag | RGS16-Gao | Insulin prom inh | PKD1 kinase inh
Cc1ccc(-c2nnn(CC(=O)N(CCN3CCOCC3)C(C(=O)NC3CCCC3)c3ccncc3)n2)o1 (configuration not stated) | 173 | 1 | i | . | 112 | -24 | -6
Cc1cccc(NC(NC(=O)c2cccnc2)C(Cl)(Cl)Cl)c1 (configuration not stated) | 84 | 0.95 | i | -2.0 | 101 | 26 | 0
C/C(=N\Nc1ccc(C#N)cc1[N+](=O)[O-])c1ccc(O)cc1 | . | 0.77 | i | . | 88 | . | .
OC(COc1ccc2cc(Br)ccc2c1)CN1CCN(c2ccccn2)CC1 (configuration not stated) | 157 | 0.86 | i | -0.2 | 280 | 8 | -13
COc1ccccc1NC(=O)Cn1nnc(-c2ccccc2NC(=O)c2cccs2)n1 | . | 0.85 | i | 0.0 | 87 | . | -4
CCN(CC)CCCN1C(=O)C(O)=C(C(=O)c2cc3cccc(OC)c3o2)C1c1ccncc1 (configuration not stated) | 106 | 0.92 | i | -0.6 | 101 | 29 | 6
N#C/C(=C\c1ccccc1)C(=O)NC(=O)Oc1ccccc1 | 187 | 0.92 | i | -2.3 | 109 | -3 | -4
CCCCCCCc1nc2c(=O)[nH]c3ccccc3c2o1 | 171 | . | . | -1.2 | . | -31 | -6
CCCCOc1ccc(C(=O)OC(C)CN(C)C)cc1 (configuration not stated) | 107 | . | . | -2.3 | 136 | -50 | 10
O=c1oc2ccccc2n1CSc1nc2ccccc2s1 | . | 0.85 | i | -0.9 | 147 | . | 5
COC(=O)Cc1c(C)nc2nc(-c3ccc(C)cc3)[nH]n2c1=O | 114 | 0.93 | i | 0.1 | 100 | -36 | -3
Cc1ccc(C(=O)O)cc1S(=O)(=O)N1CCOCC1 | 69 | 1 | i | -2.3 | 90 | -49 | -2
CNC(=O)Cn1c(C)cc(=O)c2cccc(C)c21 | . | 0.91 | i | . | 100 | . | .
COc1ccccc1NC(=O)CCC(=O)c1ccc(-c2ccccc2)cc1 | 110 | 1.2 | i | -0.9 | 96 | 36 | -4
COC(=O)Cc1c(C)c2ccc(OC(C)C)cc2oc1=O | . | 0.97 | i | . | 97 | . | .
CCCOC(=O)Nc1sc2c(c1C(N)=O)CCCC2 | . | 1 | i | . | 68 | . | -7
COCCN1C(=O)C(=O)/C(=C(/O)c2ccc(S(=O)(=O)N3CCOCC3)cc2)C1c1ccc(O)cc1 (configuration not stated) | . | 1 | i | . | 99 | . | .
Cc1c(O)ccc2c(CN3CCN(CCO)CC3)cc(=O)oc12 | 67 | 0.99 | i | -0.6 | 115 | 17 | -6
COC(=O)CN1C(c2ccc(OC)cc2)=Nc2ccc(Cl)cc2C1c1ccccc1 (configuration not stated) | . | 1 | i | -0.2 | 171 | . | 1
O=C(COc1ccc(Cl)cc1[N+](=O)[O-])N1CCCCCC1 | . | 1 | i | . | 100 | . | -7
CCOc1cccc(C(=O)Nc2ccc3oc(Cc4ccc(Cl)cc4)nc3c2)c1 | 59 | 0.87 | i | -0.8 | 101 | -57 | 3
CC1CCCCN1C(=O)COc1ccc2ccc(=O)oc2c1 (configuration not stated) | . | 1.1 | i | . | 101 | . | -3
CCOC(=O)c1c2c3c(c(Cl)ccc3[nH]c1=O)C(=O)c1ccccc1-2 | . | . | ? | . | 100 | . | 4
C=CCn1c(=O)c(C(=O)Nc2ccccc2S(N)(=O)=O)c(O)c2ccccc21 | . | 0.94 | i | . | 110 | . | -4
COc1ccccc1N(CN1C(=O)c2ccccc2C1=O)C(=O)c1cccnc1 | . | 1.1 | i | -2.3 | 109 | . | 1

The list goes on, starting with the last 2 of the part before.
Molecule | Insulin prom inh cell count | HSV replic up primary fold | HSV replic up | GALR2 ag | RGS16-Gao | Insulin prom inh | PKD1 kinase inh
C=CCn1c(=O)c(C(=O)Nc2ccccc2S(N)(=O)=O)c(O)c2ccccc21 | . | 0.94 | i | . | 110 | . | -4
COc1ccccc1N(CN1C(=O)c2ccccc2C1=O)C(=O)c1cccnc1 | . | 1.1 | i | -2.3 | 109 | . | 1
COCCNC(=O)CN(C(=O)Cn1nnc2ccccc21)c1ccc(F)c(Cl)c1 | 90 | 1 | i | -2.0 | 101 | 9 | -9
C=CCn1c(Cc2cccs2)nnc1SCC(=O)Nc1ccc(C(=O)OCC)cc1 | . | 0.91 | i | -1.0 | 106 | . | -8
COc1cccc(C2C(C#N)=C(N)Oc3cc(C)[nH]c(=O)c32)c1OC (configuration not stated) | . | . | . | -4.1 | 95 | . | -6
COC(=O)c1ccccc1NC(=O)CSc1nc2cccnc2n1C | . | 1 | i | . | 104 | . | -6
O=C(Cn1cc2c(n1)CCCC2)Nc1ccccc1Cl | . | 0.79 | i | -1.6 | 103 | . | -3
Cc1nn(Cc2c(F)cccc2Cl)c(C)c1NC(=O)C1CC1 | 129 | 0.77 | i | -1.2 | 96 | 36 | 0
CCSc1nnc(NC(=O)c2cc(C)oc2C)s1 | 108 | 1.2 | i | -1.1 | 105 | 14 | -8
CCOc1ccc2nc(SCC(=O)Nc3ccc4c(c3)OCCO4)[nH]c2c1 | 90 | 1.1 | i | -1.1 | 104 | 43 | 2
COc1cc([N+](=O)[O-])cc(/C=N/NC(=O)c2cc(-c3ccccc3)nc3ccccc23)c1O | . | 1 | i | . | 101 | . | .
O=c1c(-c2ccc(Cl)cc2)[n+]([O-])c2ccccc2n1O | 96 | 1.2 | i | -2.9 | 127 | -44 | -5
Cc1ccc2[nH]c(=O)c3cc(C(=O)N(C)c4ccc(C)c(C)c4)sc3c2c1 | . | 0.66 | i | . | 97 | . | .
CCOc1ccc(Nc2ccc(N3C(=O)CCC3=O)cc2[N+](=O)[O-])cc1 | 112 | 0.58 | i | . | 103 | -14 | -8
Cc1cc(NC(=O)C2CCCCC2)n(-c2nc3ccccc3[nH]2)n1 | 96 | 0.91 | i | 0.8 | 102 | 43 | -4
C/C(=N\Nc1ccc(F)cc1F)c1ccc(N2CCOCC2)cc1 | 94 | 1 | i | . | 103 | 33 | -6
CC(C)(C)n1nc2c(c1NC(=O)Cc1ccc(F)cc1)CSC2 | . | 0.79 | i | -2.0 | 98 | . | -1
CN1/C(=C\C=C(C#N)C#N)C(C)(C)c2ccccc21 | 83 | . | ? | . | 105 | -65 | -1
C=CCNC(=O)CCCc1ccccc1 | . | 0.96 | i | -0.8 | 100 | . | -1
COc1ccc(-n2c3c(c(=O)[nH]c2=O)C(NS(=O)(=O)c2ccc(Cl)cc2)(C(F)(F)F)C(=O)N3)cc1 (configuration not stated) | . | 0.95 | i | . | 103 | . | .
O=C(CCCCCn1c(=O)[nH]c2ccsc2c1=O)NCc1cccs1 | . | 0.87 | i | -1.1 | 91 | . | -1
Clc1ccc(C2=NNC(=NCc3ccccc3)SC2)cc1 | . | 0.99 | i | . | 98 | . | -3
CC1CCCC(C)N1/N=C/c1cc(Br)cc(Br)c1O (configuration not stated) | . | 1.2 | i | -1.2 | 104 | . | 2
COc1ccc(N2C(=O)C3CCCN3C2c2ccc(C)cc2)cc1 (configuration not stated) | . | 1.1 | i | -1.5 | 125 | . | -10
CCc1nc(SCC(=O)N2CCC(Cc3ccccc3)CC2)c2c(=O)n(C)c(=O)n(C)c2n1 | . | 0.87 | i | -2.6 | 102 | . | 2
O=C(CC1C(=O)NCCN1Cc1c(F)cccc1Cl)NCCCn1cccn1 (configuration not stated) | . | 1 | i | . | 108 | . | .
COc1ccc(CN2C(=O)NC(C)(c3ccc(C)cc3)C2=O)cc1F (configuration not stated) | . | 0.93 | i | . | 101 | . | -6

Molecule | Insulin prom inh cell count | HSV replic up primary fold | HSV replic up | GALR2 ag | RGS16-Gao | Insulin prom inh | PKD1 kinase inh
O=C(c1ccccc1Cl)N1CCn2c1nc1ccccc12 | 86 | 0.99 | i | . | 112 | 12 | 2
CCOC(=O)C1CCCN(C(=O)c2ccc(CNS(=O)(=O)c3ccc(C)cc3)cc2)C1 (configuration not stated) | . | 0.93 | i | . | 95 | . | 8
Cc1c(C(=O)NCc2cccs2)oc2ccccc12 | 66 | 1.1 | i | -1.0 | 101 | 11 | -5
CCN(CC)C(=O)Nc1ccccc1C | 99 | 0.98 | i | -1.1 | 99 | 32 | -11
CCCn1c(-c2cccs2)nc2ccccc21 | . | 0.92 | i | -1.6 | 103 | . | -8
COc1ccc(C2C3=C(CCCC3=O)Nc3n[nH]c(C)c32)cc1OC (configuration not stated) | . | 1.1 | i | . | 101 | . | .
COc1cccc(N2CC(=O)N(c3cccc(OC)c3)CC2=O)c1 | . | 0.96 | i | . | 99 | . | -2
CCOc1ccccc1COC(=O)c1cccc(-n2cnnn2)c1 | . | 0.96 | i | -2.0 | 101 | . | 2
O=C(COc1ccccc1)NCC(c1cccs1)N1CCOCC1 (configuration not stated) | 119 | 0.95 | i | -1.1 | 102 | -52 | -5
COc1ccc(NC(=O)C23CC4CC(C2)CC(c2ccccc2)(C4)C3)c(OC)c1 | . | 1.1 | i | 0.8 | 103 | . | -4
O=C1/C(=C\c2cccnc2)SC(=S)N1c1ccc(F)cc1 | 77 | 1.1 | i | . | 92 | 50 | 11
CSC1=NCCN1C(=O)c1c(-c2c(F)cccc2Cl)noc1C | . | 0.96 | i | . | 101 | . | .
CN(C)Cc1c(O)ccc2ccccc12 | . | 0.93 | i | . | 96 | . | .
O=C(CSc1nnc(CNc2ccc(F)cc2)n1Cc1ccco1)N1CCOCC1 | 155 | 0.88 | i | 1.2 | 106 | -10 | 0
CCCCCn1c(SCCN2CCOCC2)nc2c1c(=O)[nH]c(=O)n2C | . | 0.82 | i | -0.4 | 100 | . | -5
CC(C)OC(=O)CCc1nc2ccccc2[nH]c1=O | 117 | 0.93 | i | -3.5 | 101 | -24 | -10
CCCCN(CCCNC(=O)c1ccc2nc(N3CCOCC3)sc2c1)Cc1ccccc1 | 63 | 1.1 | i | -0.9 | 148 | 30 | -5
Cc1cc(C)cc(NC(=O)CN2CCN(CCN=CC3=C(O)CC(C)(C)CC3=O)CC2)c1 | 104 | 0.9 | i | -2.6 | 98 | 38 | -5
CC(CN1C(C)CCCC1C)OC(=O)c1ccccc1Cl (configuration not stated) | . | 0.88 | i | . | 98 | . | -6

A different layout for some results above:
CCOC(=O)C1CCCN(C(=O)c2ccc(CNS(=O)(=O)c3ccc(C)cc3)cc2)C1 (configuration not stated)
  Insulin prom inh cell count: .
  HSV replic up primary fold: 0.93
  HSV replic up: i
  GALR2 ag: .
  RGS16-Gao: 95
  Insulin prom inh: .
  PKD1 kinase inh: 8

CN(C)Cc1c(O)ccc2ccccc12
  Insulin prom inh cell count: .
  HSV replic up primary fold: 0.93
  HSV replic up: i
  GALR2 ag: .
  RGS16-Gao: 96
  Insulin prom inh: .
  PKD1 kinase inh: .

CCCCN(CCCNC(=O)c1ccc2nc(N3CCOCC3)sc2c1)Cc1ccccc1
  Insulin prom inh cell count: 63
  HSV replic up primary fold: 1.1
  HSV replic up: i
  GALR2 ag: -0.9
  RGS16-Gao: 148
  Insulin prom inh: 30
  PKD1 kinase inh: -5

Cc1cc(C)cc(NC(=O)CN2CCN(CCN=CC3=C(O)CC(C)(C)CC3=O)CC2)c1
  Insulin prom inh cell count: 104
  HSV replic up primary fold: 0.9
  HSV replic up: i
  GALR2 ag: -2.6
  RGS16-Gao: 98
  Insulin prom inh: 38
  PKD1 kinase inh: -5
